# BJeLR viability: kills HRASV12-expressing BJeLR cells. BJeLR (HRASV12) viability, CellTiter-Glo ATP luminescence, 48 h; reference of the scale not given here. 300,000 compounds, 0.17% hits. AID 1554. inhibition, % (test concentration not listed);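 active = replicate mean above 50%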;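 also: 50 nL library stock added to about 25 µL; numbers are from one replicate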
# Active calls of the source: *. This is a subset; rates above refer to the full screens.
SMILES,BJeLR viability
C/C(=N\NC(=O)C1CC1)c1cccc(NC(=O)c2cccc(Cl)c2)c1,-2
COc1ccc(-c2csc(/C(C#N)=C\c3cccc([N+](=O)[O-])c3)n2)cc1,0
Cc1ccc(N2C(=O)/C(=C/c3ccc(CN(CCC#N)S(C)(=O)=O)o3)C(=O)NC2=S)cc1C,-1
COc1cc2c(=O)nc3n(c2cc1OC)C(c1ccccc1)N=C(N)N3 (centres undefined),1
CCOC(=O)c1c(/N=C/c2ccc(O)cc2O)sc2c1CCC2,10
COc1ccc(NC(=O)c2ccc(Cl)c(NC(=O)c3ccncc3)c2)cc1,4
C#CCOCCOCCOCCNc1nc(N2CCN(C(=O)[C@H]([C@@H](C)CC)n3cc(CCCN=C(N)N)nn3)CC2)nc(N2CCN(C(=O)[C@H](C)n3cc(CCCN=C(N)N)nn3)CC2)n1,7
Cn1c(=O)c(C(=O)COC(=O)c2cc(-c3ccco3)nc3ccccc23)c(N)n(CC2CC2)c1=O,10
COc1cc(-c2cc(C(=O)NN3CCN(C)CC3)c3ccccc3n2)cc(OC)c1OC,0
COc1ccccc1N1CCN(C(=O)c2ccc3c(c2)NC(=O)C(CSCc2ccccc2C)N3)CC1 (centres undefined),-3
Cc1ccc(C)n1-c1cccc(N)c1,5
Cc1cccc(Nc2nc(N)nc(CC(=O)CSc3ccc(Cl)cc3)n2)c1,11
OCc1ccccc1N=c1ssnc1Cl,-8
O=C1NC(=O)N(c2ccccc2)C(=O)/C1=C\c1ccc2c3c(cccc13)CC2,-15
Cc1noc(C)c1CSc1ncnc2sc3c(c12)CCC3,4
O=P(O)(CN1CCCCCC1)C1Cc2ccccc2C1,-5
COc1ccc(CCNc2cc(N3CCN(C(=O)c4ccc(C)cc4)CC3)ccc2[N+](=O)[O-])cc1OC,11
O=C(Cn1ncc2c(=O)oc3ccccc3c21)Nc1nc2ccccc2s1,0
Brc1ccc(Nc2nc3ccccc3n3nnnc23)cc1,-4
O=[N+]([O-])c1cc(/C=N\Nc2nccs2)ccc1O,23
O=C(Nc1nnc(SCc2c(Cl)cccc2Cl)s1)c1ccc2ncsc2c1,-4
COc1ccc(/C=C2\SC(=S)N(NC(=O)c3ccncc3)C2=O)cc1OC,0
Cc1ccc(CN2CCc3c(OCC(=O)Nc4cccc(C)c4C)cccc3C2=O)cc1,1
COC(=O)c1ccccc1NC(=O)CN1C(=O)C2CCCN2c2ncc(Cl)cc21 (centres undefined),-2
N#Cc1ccc(C23CC4(C2)[C@H](CN(CC2CCCCC2)[C@@H]4c2ccccc2)C3c2ccc(C(F)(F)F)cc2)cc1 (some centres undefined),4
CCCCC1=CC2=CC(=O)C(C)(O)C(=O)C2=CO1 (centres undefined),5
CCCCC1=CC2=CC(=O)C(C)(OC(=O)c3ccco3)C(=O)C2=CO1 (centres undefined),4
CC(=O)NC(=S)c1c(N)n(Cc2ccccc2)c(=O)n(C)c1=O,4
COc1ccc(O[C@H]2C=C[C@@H](c3ccccc3)O[C@@H]2COC(=O)CC/C(C)=N/O[C@@H](C)c2cc(-c3c(C)cc(C)cc3C)no2)cc1,-5
O=Cc1ccc(OC(=O)Cc2ccc(F)cc2)cc1,1
COCCN1C(=S)N[C@@H](c2cccc(F)c2)C(C(=O)OC)=C1C,4
N#Cc1ccc(C23CC4(C2)[C@H](CN(Cc2ccc(C(F)(F)F)cc2)[C@@H]4c2ccccc2)C3c2ccc(C(F)(F)F)cc2)cc1 (some centres undefined),13
COc1ccc2c(c1)O[C@H](c1ccc3c(c1)OCO3)[C@@H](OC(=O)Nc1cc(OC)c(OC)c(OC)c1)C2=O,12
Nc1c(C(=O)Nn2cnnc2)cc([N+](=O)[O-])cc1[N+](=O)[O-],1
COc1ccc(C2CC(C(F)(F)F)n3nc(C(=O)Nc4c(C)n(C)n(-c5ccccc5)c4=O)c(Cl)c3N2)cc1 (centres undefined),-3
CCOc1cc(NC(=O)c2cnccn2)c(OCC)cc1NC(=O)c1cccc(F)c1,2
COC(=O)c1nc(NC(C)=O)n[nH]1,-1
COc1cccc(NC(=O)CN(C)C(=O)c2cc3c(s2)CCC3)c1,7
O=C(c1cnn(C(=O)c2ccc(O)cc2)c1)c1ccccc1O,9
CC(=O)OCCN1C(=O)c2cccc3cc([N+](=O)[O-])cc(c23)C1=O,14
C/C(CC(C)C)=N\Oc1nc(C)cc(C)n1,-10
C#C[C@]1(O)CC[C@H]2[C@@H]3[C@H](C)CC4=C(CCC(=O)C4)[C@H]3CC[C@@]21C,0
COc1ccc2c(c1)OCC1=C2CCC2(C)C(=O)CC=C12 (centres undefined),8
CC(C)c1ccc(C(=O)NNC(=O)C2C3CCC(C3)C2C(=O)O)cc1 (centres undefined),0
O=C(Nc1ccc2c(c1)OCO2)[C@@H]1[C@@H]2C(=O)N(C3CCCCC3)C(=O)[C@@H]2C2c3ccccc3C=CN21 (some centres undefined),3
COC(=O)c1ccc(C23CC4(C2)[C@H](CN(Cc2ccc(-c5ccccc5)cc2)[C@@H]4c2ccccc2)C3c2ccc(C(F)(F)F)cc2)cc1 (some centres undefined),-1
COc1cccc([C@H](O)Cn2cc(-c3ccc(CON=C(C)C)cc3)nn2)c1,4
C/C(CC(=O)Nc1ccc(F)cc1F)=N\NC(=O)C(=O)N1CCCCC1,3

# Nothing new here: entries from further up.
SMILES,BJeLR viability
CC(=O)OCCN1C(=O)c2cccc3cc([N+](=O)[O-])cc(c23)C1=O,14
C/C(CC(C)C)=N\Oc1nc(C)cc(C)n1,-10
C#C[C@]1(O)CC[C@H]2[C@@H]3[C@H](C)CC4=C(CCC(=O)C4)[C@H]3CC[C@@]21C,0
COc1ccc2c(c1)OCC1=C2CCC2(C)C(=O)CC=C12 (centres undefined),8
CC(C)c1ccc(C(=O)NNC(=O)C2C3CCC(C3)C2C(=O)O)cc1 (centres undefined),0
O=C(Nc1ccc2c(c1)OCO2)[C@@H]1[C@@H]2C(=O)N(C3CCCCC3)C(=O)[C@@H]2C2c3ccccc3C=CN21 (some centres undefined),3
COC(=O)c1ccc(C23CC4(C2)[C@H](CN(Cc2ccc(-c5ccccc5)cc2)[C@@H]4c2ccccc2)C3c2ccc(C(F)(F)F)cc2)cc1 (some centres undefined),-1

# (cont.)
SMILES,BJeLR viability
CC(=O)OC[C@H]1O[C@@H](O/N=C/[C@@H](C)[C@H](OCc2ccccc2)C(C)C)[C@H](OC(C)=O)[C@@H](OC(C)=O)[C@@H]1OC(C)=O,7
C/C=C/C(=O)N1CC2(CC(c3cccc(NC(=O)CCCCC)c3)=NO2)C[C@H]1C(N)=O (some centres undefined),-12
CC1(C)Cc2nc3sc(C(=O)O)c(N)c3cc2CS1,2
CC(C)C(NC(=O)C12CC3CC(CC(C3)C1)C2)C(=O)NC1=NCCS1 (centres undefined),-3
COc1ccc(C(=O)N2CCc3cc(OC)c(OC)cc3C2c2cccc([N+](=O)[O-])c2)cc1 (centres undefined),8
O=C(CNc1cccc2ccccc12)N/N=C/c1ccccn1,5
C#CCOCCOCCOCCNc1nc(N2CCN(C(=O)C([C@@H](C)CC)n3cc(C(N)COC(=O)C(F)(F)F)nn3)CC2)nc(N2CCN(C(=O)[C@H](CCC(=O)O)n3cc(C(N)CC(C)C)nn3)CC2)n1 (some centres undefined),-1
CCCCn1c(=O)c(C(=O)N/N=C/c2ccc(F)cc2)c(O)c2ccccc21,-1
CCOC(=O)C1=C(C)OC(N)=C(C#N)C1c1c(C)nn(-c2ccc(C)cc2)c1Cl (centres undefined),-4
FC(F)(F)c1cccc(NC(=S)NNC(=S)Nc2ccc(Cl)cc2)c1,0
COc1cc(OC)c(/C=N/NC(=O)c2ccc(Cn3nc([N+](=O)[O-])cc3C)cc2)c(OC)c1,10
COc1ccc(C2=CC3=CC(=O)C(C)(O)C(=O)C3=CO2)cc1 (centres undefined),-4
C#CCOCCOCCOCCNc1nc(N2CCN(C(=O)C([C@@H](C)CC)n3cc(C(N)CO)nn3)CC2)nc(N2CCN(C(=O)[C@H](CCC(=O)O)n3cc(C(N)Cc4ccc(O)cc4)nn3)CC2)n1 (some centres undefined),-15
COc1cccc(-c2cc(C(F)(F)F)c3c(N)c(C#N)sc3n2)c1,2
CC1(C)CC(=O)C2=C(C1)Nc1ccccc1N=C2,3
FC(F)(F)c1ccc(C2[C@H]3CN(Cc4ccc(-c5ccccc5)cc4)[C@H](c4ccccc4)C34CC2(c2cccnc2)C4)cc1 (some centres undefined),1
OC[C@@H](O)CCl,-4
C#CCOCCOCCOCCNc1nc(N2CCN(C(=O)[C@H]([C@@H](C)CC)n3cc([C@@H](N)Cc4ccc(O)cc4)nn3)CC2)nc(N2CCN(C(=O)[C@H](Cc3cc4ccccc4[nH]3)n3cc([C@@H](N)C(C)CC)nn3)CC2)n1 (some centres undefined),1
COc1ccc(/C=N/NC(=S)Nc2cc(C(F)(F)F)ccc2Cl)cc1,6
CCC(C)[C@H]1CN=C(N)N1CC1CCCCC1 (some centres undefined),8
Cc1nc(Nc2cnc(/C=C/c3cc(C(=O)Nc4cccc(C(F)(F)F)c4)ccc3C)cn2)cc(N2CCNCC2)n1,8
O=c1/c(=C/c2ccc(O)cc2)sc2nc3cc(Br)cnc3n12,4
Cc1cccc(/C=N/n2c(-c3ccccn3)n[nH]c2=S)c1,10
CC(C)C1CCC(C(=O)N[C@H](Cc2ccccc2)C(=O)O)CC1 (some centres undefined),14

# Reprinted at random: seven compounds from above.
SMILES,BJeLR viability
C#CCOCCOCCOCCNc1nc(N2CCN(C(=O)[C@H]([C@@H](C)CC)n3cc([C@@H](N)Cc4ccc(O)cc4)nn3)CC2)nc(N2CCN(C(=O)[C@H](Cc3cc4ccccc4[nH]3)n3cc([C@@H](N)C(C)CC)nn3)CC2)n1 (some centres undefined),1
Cc1nc(Nc2cnc(/C=C/c3cc(C(=O)Nc4cccc(C(F)(F)F)c4)ccc3C)cn2)cc(N2CCNCC2)n1,8
O=c1/c(=C/c2ccc(O)cc2)sc2nc3cc(Br)cnc3n12,4
COc1cccc(-c2cc(C(F)(F)F)c3c(N)c(C#N)sc3n2)c1,2
OC[C@@H](O)CCl,-4
Cc1cccc(/C=N/n2c(-c3ccccn3)n[nH]c2=S)c1,10
CCC(C)[C@H]1CN=C(N)N1CC1CCCCC1 (some centres undefined),8

# Additional records
SMILES,BJeLR viability
CC(=O)NC1C(=O)SC1(C)C (centres undefined),-3
C/C(=N\Nc1nc(C(=O)O)cs1)c1ccccc1,3
Nc1ccc(Sc2cc(Cl)nc(N)n2)cc1,-4
C[C@@H](Oc1ccccc1)c1nnn(Cc2ccccc2)c1-c1c([C@@H](C)Oc2ccccc2)nnn1Cc1ccccc1,4
CCOC(=O)c1ccccc1NC(=O)Cc1sc(-c2cccnc2)nc1-c1ccc(C)cc1,8
Cc1ccc(C(=O)N[C@@H](C)CN2C3=NC[C@@H](Cc4ccccc4)N3C[C@H]2Cc2ccc(O)cc2)cc1Br,-2
N#CCC(=O)N/N=C/c1cc(-c2ccccc2)n(-c2ccc(Cl)cc2)c1-c1ccccc1,2
Cc1cc(C)c2nc3s/c(=C/c4ccc5c(c4)n(C)c(=O)n5C)c(=O)n3c2c1,-9
C#CCOCCOCCOCCNc1nc(N2CCN(C(=O)[C@H]([C@@H](C)CC)n3cc([C@@H](N)CC(C)C)nn3)CC2)nc(N2CCN(C(=O)[C@H](Cc3cc4ccccc4[nH]3)n3cc([C@@H](N)Cc4ccc(O)cc4)nn3)CC2)n1,-1
O=C(O)C1C2C=CC(O2)C1C(=O)Nc1ccc2c(c1)OCCO2 (centres undefined),-3
Cn1c(CNC(=O)c2ccccc2F)nnc1SCc1nc2ccccc2c(=O)[nH]1,4
O=C1CN(S(=O)(=O)c2ccc(F)cc2)CC(=O)N1CCc1ccccc1,3
CC(/C=C/c1ccccc1)=N\Nc1nc2c(c(=O)[nH]c(=O)n2C)n1CCO,-2
Clc1ccc(C2C3=C(Nc4ncnn42)c2ccccc2CC3)cc1 (centres undefined),7
CCCCNC(=S)N(C)/N=C/c1sc(N2CCCCC2)nc1-c1cccs1,-6
CC(C)(C)OC(=O)CN1C(=O)S/C(=C\c2ccc(-c3cccc(C(=O)O)c3)o2)C1=O,2
COC(=O)C1=C(C)N=c2s/c(=C3\C(=O)Nc4ccccc43)c(=O)n2C1c1ccccc1 (centres undefined),2
COC(=O)C1=C(C(=O)OC)[C@@H]2N(C)c3ccc(OC)cc3[C@@]23C[C@@H](C(=O)OC)N(C(=O)c2cc(C)oc2C)C3=N1,-6
COc1ccc(CNc2ccc3c(c2)CCC3)cc1OC,-1
O=C1N/C(=C\c2nc3ccccc3s2)c2ccccc21,15
COc1cc2c(c(O)c1OC)-c1c(cc(OC)c(OC)c1O)[C@@H](OC(=O)c1ccccc1)[C@@](C)(O)[C@@H](C)[C@@H]2OC(C)=O,4
COc1ccccc1C(=O)Nc1cc2c(ccc3ccccc32)oc1=O,-1
CC(=O)O[C@@H]1/C=C/[C@](C)(O)C[C@@H](C)C/C=C/[C@H]2[C@H](O)C(C)=C(C)[C@H]3[C@H](Cc4ccccc4)NC(=O)[C@@]123,3
CC1(C)NC(=O)N(CC(=O)Nc2cc(S(=O)(=O)N3CCOCC3)ccc2N2CCOCC2)C1=O,-11

# The final 2 compounds of the part before lead into the next.
SMILES,BJeLR viability
CC(=O)O[C@@H]1/C=C/[C@](C)(O)C[C@@H](C)C/C=C/[C@H]2[C@H](O)C(C)=C(C)[C@H]3[C@H](Cc4ccccc4)NC(=O)[C@@]123,3
CC1(C)NC(=O)N(CC(=O)Nc2cc(S(=O)(=O)N3CCOCC3)ccc2N2CCOCC2)C1=O,-11
Oc1ccc(Br)cc1/C=N/Nc1nc(N2CCCCC2)nc(N2CCOCC2)n1,6
C=CC[C@@H]1C=C(C)C[C@H](C)C[C@H](OC)[C@H]2O[C@@](O)(C(=O)C(=O)N3CCCC[C@H]3C(=O)O[C@H](/C(C)=C/[C@@H]3CC[C@@H](O)[C@H](OC)C3)[C@H](C)[C@@H](O)CC1=O)[C@H](C)C[C@@H]2OC,-11
O=c1cc(-c2ccc(F)cc2F)[nH]c2ccccc12,1
Cc1ccc2nc(-c3ccc(NC(=O)CN(C)S(=O)(=O)c4ccccc4)cc3)sc2c1,3
CN(C)CCc1nc2ccccc2c(=O)n1-c1ccccc1,-2
O=C(CSc1nc(-c2ccccc2)nc2c1Cc1ccccc1O2)Nc1ccccc1,-5
O=C(O)c1ccc(/C=N/NC(=O)C2CC2(c2ccccc2)c2ccccc2)cc1 (centres undefined),-17
Cc1nc2ccccc2n1/C(=N/S(=O)(=O)c1ccc(Br)cc1)c1ccccc1,-13
COc1cc(/C=C2/C(=O)N(c3ccc(Br)cc3)N=C2C)cc([N+](=O)[O-])c1O,3
